Screens as filed in PubChem.
Mtb growth – Confirmatory growth inhibition assay against Mycobacterium tuberculosis H37Rv, potency (AID 1949) | most inactive calls were filed without a number and no value below 0 was filed | inhibition, % at 10 µg/mL; hits with a dose series show IC50 in µg/mL | 100,000 tested, 1.6% active;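 active = confirmed in a dose series; inconclusive = about 50% or more but not retested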;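 note: bacteria grown 7 days with compound before Alamar blue readout; 0% = untreated bacteria and 100% = reference antibiotic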
Starred values were filed as active, the others as inactive; i = inactive; ? = inconclusive. These rows are one share of the data; count on the stated rates, not on these rows.

canonical_smiles	Mtb growth
Cc1ccc(N(CC(=O)Nc2cc(C)ccc2C)S(C)(=O)=O)cc1	i
CS(=O)(=O)N(CCc1ccccc1)CC(=O)NCc1ccncc1	i
Cc1ccc(C)c(C(=O)n2cnnc2N)c1	i
CS(=O)(=O)N(CCc1ccccc1)CC(=O)Nc1ccc(Br)cc1F	i
CCc1cc(I)ccc1NC(=O)c1cc2ccccc2o1	i
Cc1cc(C)c(S(=O)(=O)N2CCC(C(=O)Nc3ccc(Oc4ccccc4)cc3)CC2)c(C)c1	5%
CCCC(C)NC(=O)c1sc2ccccc2c1Cl (stereo unspecified)	5%
CN(C)CCNC(=O)c1cccc(F)c1	i
COc1ccc(NC(=O)CNC(=O)c2ccco2)cc1	i
CCN(CC)C(=O)N1CCN(S(=O)(=O)c2ccc(F)cc2)CC1	i
Cc1cc(=O)oc2cc(OS(=O)(=O)c3ccccc3)c(Cl)cc12	i
COc1ccc(OC)c(NC(=O)CS)c1	i
Cc1sc(N2C(=O)c3cccc([N+](=O)[O-])c3C2=O)nc1-c1ccccc1	i
Cc1ccc(C(C)C)c(OCc2ccc(C(=O)O)o2)c1	i
CCCCOc1ccc(NC(=O)C(=O)NC(C)c2ccccc2)cc1 (stereo unspecified)	i
COc1ccc(C(=O)/C=C/c2ccc(-c3ccc(Cl)cc3)o2)cc1	i
Cc1sc(NC(=O)CCn2cnc3ccccc3c2=O)c(C#N)c1C	i
Brc1cccc(CSc2nnnn2-c2ccccc2)c1	i
Cc1cccc(C(=O)NCCN2CCCC2)c1	i
C=CCOc1ccc(N2CC(C(=O)O)CC2=O)cc1 (stereo unspecified)	i
COc1ccc(N2CCN(CC(O)COC3CC(C)CC(C)(C)C3)CC2)cc1 (stereo unspecified)	5%
CCc1c(O)nc(SCC(=O)N2CCCCC2)[nH]c1=O	i
O=C(c1ccco1)N1CCN(C2CC(=O)N(c3ccc4c(c3)OCO4)C2=O)CC1 (stereo unspecified)	i
O=C(CN1C(=O)c2cccc3cccc1c23)Nc1ccc(S(=O)(=O)N2CCOCC2)cc1	i
CC(NC(=O)C(F)(F)F)C(=O)Nc1ccc(Cl)cc1 (stereo unspecified)	i
N#Cc1nc(-c2cccs2)oc1NCC1CCCO1 (stereo unspecified)	i
COC(=O)COc1ccc(-c2nnc(Nc3ccc(O)cc3)c3ccccc23)cc1	39%
S=C(Nc1cnccn1)Nc1ccc(Br)cc1Cl	5%
Cn1nc([N+](=O)[O-])nc1Sc1ncnn1-c1ccccc1	3µg/mL*
COc1ccc(S(=O)(=O)Nc2ccc(S(=O)(=O)Nc3ccccc3C)cc2)cc1C	i

Five entries picked at random from those above, as already listed:
canonical_smiles	Mtb growth
Brc1cccc(CSc2nnnn2-c2ccccc2)c1	i
O=C(c1ccco1)N1CCN(C2CC(=O)N(c3ccc4c(c3)OCO4)C2=O)CC1 (stereo unspecified)	i
N#Cc1nc(-c2cccs2)oc1NCC1CCCO1 (stereo unspecified)	i
Cc1ccc(N(CC(=O)Nc2cc(C)ccc2C)S(C)(=O)=O)cc1	i
CCCCOc1ccc(NC(=O)C(=O)NC(C)c2ccccc2)cc1 (stereo unspecified)	i

Continuation:
canonical_smiles	Mtb growth
COc1c(Cl)cc(C(=O)Nc2cccc(NC(=O)c3ccccc3)c2)cc1Cl	33%
O=[N+]([O-])c1ccc2c(c1)C1C3CCC(C3)C1C(c1ccc(F)cc1)N2 (stereo unspecified)	i
O=C(COc1ccc2ccccc2c1)Nc1ccccc1N1CCN(C(=O)c2ccccc2)CC1	i
Cc1ccc(S(=O)(=O)NCC2CCCO2)cc1C(N)=O (stereo unspecified)	i
COc1ccc2cc(Br)ccc2c1CC(=O)Nc1nc2ccccc2s1	5%
CCOC(=O)N1CCC(n2c(SCC(=O)Nc3ccccc3OC)nc3ccccc3c2=O)CC1	10%
O=C(Cn1c(-c2ccccn2)nc2ccccc21)NCCc1ccccc1	i
Cc1ccc(N(CC(=O)Nc2ccccc2F)S(C)(=O)=O)cc1C	i
O=C(CCCN1C(=O)c2ccccc2C1=O)NCc1cccnc1	i
Cc1ccc(C(=O)Nc2nc3ccc(Br)cc3s2)cc1C	i
CCC(C)NS(=O)(=O)c1ccc(NC(=O)c2ccccc2F)cc1 (stereo unspecified)	i
COc1ccc(S(=O)(=O)N(C)CC(=O)Nc2cc(C)ccc2C)cc1	i
c1ccc(-n2nnnc2CSc2nc3ccccc3s2)cc1	0%
COc1ccccc1N1CCN(CCC(=O)Nc2ccc(Br)c(C)c2)CC1	i
CCN(CC)C(=O)Cn1c(C(F)(F)F)nc2ccccc21	i
CCC(=O)Nc1cc(C)c(OC)c(C)c1	1%
COc1ccc(-c2noc(COc3ccc(C(C)C)cc3Br)n2)cc1OC	i
COc1ccc(CC(=O)Nc2ccc(Cl)cc2F)cc1	i
O=C(Nc1ccccc1-c1ccccc1)c1ccc(CN2CCOCC2)cc1	i
Cc1nc(C)c(C(=O)C2=C(O)C(=O)N(CCN(C)C)C2c2ccccc2F)s1 (stereo unspecified)	i
Cc1ccc(S(=O)(=O)NNc2ccccc2)cc1	3%
CCOC(=O)c1c(NC(=S)Nc2ccc(C(=O)N3CCOCC3)cc2)sc(C)c1-c1ccccc1	i
COC(=O)COc1ccc(Cl)cc1C1C(C(=O)OC)=C(C)NC2=C1C(=O)CC(C)(C)C2 (stereo unspecified)	i
OC1CCN(C(=S)NC2CCCC2)CC1	i
COC(=O)c1cc(OC)c(OC)cc1NC(=S)N1CCN(c2ncccn2)CC1	i
COc1ccc(OC)c(N(CC(=O)N2CCC(C(N)=O)CC2)S(=O)(=O)c2ccccc2)c1	i
O=C(CSc1nnc(CN2CCOCC2)n1-c1ccccc1)Nc1ccc(Cl)cc1	i
CCC(C)NCCOc1ccccc1F (stereo unspecified)	i
CCOC(=O)C1=C(C)NC(=S)NC1c1ccc(OC(=O)c2ccccc2)c(OC)c1 (stereo unspecified)	i
CCNC(=S)NCc1ccc(Cl)cc1	i
COc1ccc(OC)c(NC(=O)CSc2nnc(-c3ccccc3)n2-c2ccccc2)c1	i
Cc1cc(OC(=O)C2CC2)c2c3c(c(=O)oc2c1)CCCC3	1.4µg/mL*
O=C(Nc1ccc(S(=O)(=O)NCC2CCCO2)cc1)C1c2ccccc2Oc2ccccc21 (stereo unspecified)	i
Cc1nc2ccc(NC(=O)NCc3ccccc3)cc2nc1C	i
CC(C)CC(=O)Nc1ccc2oc(-c3cccc(Cl)c3)nc2c1	?
COC(=O)c1cccc(NC(=O)c2ccc(OC(C)=O)cc2)c1C	i
CCC(=O)N(CCC(c1ccccc1)c1ccco1)Cc1ccc(OC)c(OC)c1 (stereo unspecified)	i
CC(=O)c1ccc(N2CCN(C(=O)Cc3cccs3)CC2)cc1	i
OCc1ccccc1OCc1cccc2ccccc12	i
COc1ccc(Cl)cc1NC(=O)CCc1ccc(S(=O)(=O)NC2CCCCC2)cc1	i
CCOc1ccc2nc(NC(=S)N(C)C)sc2c1	30%
CCOC(=O)C(Cc1ccc(O)cc1)NC(C)=O (stereo unspecified)	i
Cc1cccc(NC(=O)C(=O)NC2CCCCC2)c1	4%
COc1ccc(NC(=S)N2CCN(Cc3ccccc3)CC2)c(OC)c1	i
CS(=O)(=O)NCCSCc1c(Cl)cccc1Cl	i
CCCCSc1c(C)c2cc3c(cc2[nH]c1=O)OCO3	i
O=C(NC1CCCCC1)c1ccc(COc2ccc3ccccc3c2)o1	3%
O=C(Nc1nc2ccc(Br)cc2c(=O)[nH]1)c1ccc(F)cc1	1%
CCOC(=O)c1c(NC(=O)c2ccc(N(C)S(C)(=O)=O)cc2)sc2c1CCCC2	i
C=CCN(C(=O)Nc1ccc(F)cc1)C1CC(=O)N(c2ccc(OC)cc2)C1=O (stereo unspecified)	i
COc1ccccc1NC(=O)CSc1nnc(Cc2ccccc2)n1-c1ccc(C)cc1	i
CCc1nnc(NC(=O)CCCN2C(=O)/C(=C\c3cccs3)SC2=S)s1	5%
COc1ccc(C(=S)N2CCN(c3ccc(F)cc3)CC2)cc1OC	i
CC(=O)Oc1ccc(C(=O)N2CCN(c3ccccc3)CC2)cc1	i
CCN1CCN(C(=S)Nc2ccc(Br)cc2)CC1	i
O=C(Nc1ccc2nsnc2c1)N1CCC(c2ccccc2)C1 (stereo unspecified)	i
COC(=O)c1ccc(NC(=S)N2CCCCC2)cc1	i
COc1cc(NC(=S)Nc2cccc(Cl)c2)cc(OC)c1	40%
COC(=O)c1sc(NC(=O)c2cc(-c3ccc(C)o3)nc3ccccc23)c(C(=O)OC)c1C	i
Cc1cccc(C)c1NC(=O)C(=O)c1c(C)[nH]c2ccccc12	i

Later entries.
structure	Mtb growth
Cc1nn(Cc2cccc(NC(=S)NC3CCCC3)c2)c(C)c1Br	i
O=C(CCCN1C(=O)c2ccccc2C1=O)Nc1ccc(Cl)cc1Cl	i
CC(C(=O)Oc1cccc2cccnc12)N1C(=O)c2ccccc2C1=O (stereo unspecified)	4.4µg/mL*
O=C1CCCc2c1cc(C(=O)NCCc1ccccc1)c(=O)n2-c1ccc(Cl)cc1	i
CC12CN(C(=O)c3ccccc3)CC(C)(CN(C(=O)c3ccccc3)C1)C2O (stereo unspecified)	i
CCC(C)NS(=O)(=O)c1ccc(OCC(=O)N2CCCC2)cc1 (stereo unspecified)	i
CC(C)(C)NCCOc1ccc(F)cc1	4%
CC(C)(C)NC(=O)CSc1n[nH]c(=O)n1-c1ccccc1	2%
CCOc1ccc(/C=C2\SC(=Nc3ccccc3O)NC2=O)cc1	i
CCc1ccc(-n2c(-c3ccncc3)n[nH]c2=S)cc1	0%
CCn1c(Sc2ncnc3ccccc23)nc2ccccc21	2.8µg/mL*
CCOc1ccc(Nc2ccc(S(=O)(=O)C(F)(F)F)cc2[N+](=O)[O-])cc1	i
COC(=O)c1sc2cc(NC(=S)NCCCn3cc(Br)cn3)ccc2c1Cl	i
COC(=O)c1cccc(NS(=O)(=O)c2ccc(C)c([N+](=O)[O-])c2)c1C	i
CC(C)(Oc1ccc(Br)cc1)C(=O)O	1%
O=C(O)C1CCCCC1C(=O)Nc1ccc([N+](=O)[O-])cc1 (stereo unspecified)	i
COC(=O)c1cc(NC(=O)C(C)Oc2cccc(Cl)c2)cc(C(=O)OC)c1 (stereo unspecified)	i
COc1ccc(S(=O)(=O)NCCC2=CCCCC2)c(Cl)c1Cl	i
O=C(Nc1cccnc1)c1ccc2c(c1)C(=O)N(CC1CCCO1)C2=O (stereo unspecified)	i
CC(C)CC(=O)Nc1ccc2oc(-c3ccccc3F)nc2c1	7%
Cc1ccc(S(=O)(=O)NC(=O)CSc2nc3ccccc3s2)cc1	i
COc1ccc(C(=O)NCc2nnc(SCC(=O)N3c4ccccc4Sc4ccccc43)n2C)cc1OC	i
O=C(c1cccc(S(=O)(=O)N2CCc3ccccc3C2)c1)N1CCN(c2ccccc2)CC1	i
COc1ccc(C2=CSC3=NCCN23)cc1[N+](=O)[O-]	i
Cc1ccc(C)c(NC(=O)CC(NC2CCCCC2)C(=O)O)c1 (stereo unspecified)	1%
COC(=O)c1cc(OC)c(OC)cc1NC(=O)CSc1ccc(C)cc1	0%
CCN(CC)CCNC(=O)c1cc(C(C)(C)C)cc(C(C)(C)C)c1	8%
O=C(Nc1ccc(N2CCOCC2)cc1)c1ccc2snnc2c1	i
COc1ccc(C(C)=O)cc1CSc1nnc(C)n1Cc1ccccc1	i
CCC(=O)c1ccc(N2CCc3ccccc3C2)c(F)c1	i

Shown with each value named: four of the compounds above
structure: COc1ccc(C(=O)NCc2nnc(SCC(=O)N3c4ccccc4Sc4ccccc43)n2C)cc1OC
- Mtb growth = i

structure: O=C(c1cccc(S(=O)(=O)N2CCc3ccccc3C2)c1)N1CCN(c2ccccc2)CC1
- Mtb growth = i

structure: COc1ccc(C2=CSC3=NCCN23)cc1[N+](=O)[O-]
- Mtb growth = i

structure: Cc1ccc(C)c(NC(=O)CC(NC2CCCCC2)C(=O)O)c1 (stereo unspecified)
- Mtb growth = 1%

Other compounds follow:
structure	Mtb growth
CCN(CC)CCOC(=O)c1ccc(NC(=O)COc2ccc(Cl)cc2Cl)cc1	i
CS(=O)(=O)N(CC(=O)N1CCN(Cc2ccccc2)CC1)c1ccccc1F	i
CC1(C)Oc2ccc(NC(=O)c3ccc(Cl)c(Cl)c3)cc2O1	i
COc1ccc(C(=O)Nc2cccc(C)n2)cc1OC	i
O=C(c1cccs1)c1coc2ccc(O)c(CN3CCOCC3)c12	i
COc1cccc(OCC(O)CN2CCN(C(c3ccccc3)c3ccccc3)CC2)c1 (stereo unspecified)	?
CCOC(=O)C1=C(c2ccccc2)Nc2ncnn2C1c1ccccc1C(F)(F)F (stereo unspecified)	i
CC1CCCN(C(=S)NCCc2ccccc2)C1 (stereo unspecified)	i
Cc1ccccc1-n1c(=O)c2c(n3cnnc13)-c1ccccc1CC21CCCCC1	i
CSc1nc(-c2ccco2)nn1C(=O)c1ccc(F)cc1	i
COc1cc(C)c(S(=O)(=O)Nc2ccccn2)cc1C(C)C	i
Cc1ccc(S(=O)(=O)Nc2ccc3c(c2)nc(C)n3C)cc1	5%
N#Cc1c(NC(=S)Nc2ccc(F)cc2)sc2c1CCCC2	i
Cc1ccc(SC(C)C(=O)Nc2ccc3c(c2)OCCO3)cc1 (stereo unspecified)	8%
Cc1noc(C)c1C(=O)NCc1ccccn1	i

Three compounds from above, ordered by SMILES length, smallest number first.
structure	Mtb growth
COc1ccc(C(=O)Nc2cccc(C)n2)cc1OC	i
COc1ccc(NC(=S)N2CCN(Cc3ccccc3)CC2)c(OC)c1	i
Cc1cc(=O)oc2cc(OS(=O)(=O)c3ccccc3)c(Cl)cc12	i
